VDR inhibitor: blocks the human vitamin D receptor. VDR-SRC2-3 peptide fluorescence polarization, 2 h. Potency, µM, for inactives: max response, negative = inhibition, actives largely listed as inhibitors. 400,000 compounds, 0.93% hits. AID 504847; active means well fitted inhibition curve with a large enough effect; inconclusive means small, poorly fitted or top-dose-only effect, or another doubt; inactive means no such curve, though single readings can be large or run the other way; further: series mostly up to about 120 µM
Target sequence (P11473 whole entry, looked up): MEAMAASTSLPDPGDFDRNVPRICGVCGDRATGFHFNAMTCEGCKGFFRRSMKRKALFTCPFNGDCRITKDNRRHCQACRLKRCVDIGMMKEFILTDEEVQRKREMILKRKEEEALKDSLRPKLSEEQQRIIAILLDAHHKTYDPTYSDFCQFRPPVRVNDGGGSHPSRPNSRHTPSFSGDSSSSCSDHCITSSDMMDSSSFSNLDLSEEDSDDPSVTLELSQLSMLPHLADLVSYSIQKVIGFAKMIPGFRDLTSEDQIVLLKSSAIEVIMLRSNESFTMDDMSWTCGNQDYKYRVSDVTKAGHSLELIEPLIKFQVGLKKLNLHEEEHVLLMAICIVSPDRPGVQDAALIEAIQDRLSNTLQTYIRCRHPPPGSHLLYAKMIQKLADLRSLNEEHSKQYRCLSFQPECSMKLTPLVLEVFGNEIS
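Inhibition of the VDR/SRC2-3 peptide interaction is quantified by fluorescence polarization. Compounds (23 nl, pintool) incubate with the reagents for 2 hours at ambient room temperature.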
* marks the source's active call; other numbers are inactive results; ? = inconclusive; & = joins results of further samples; [ ] = another dose, or the depositor's remark. On the % scale 0 is the no-effect control and ±100 the full control effect; potency means the concentration at half of the fitted maximal effect. Only part of the results is shown, so the mix of outcomes need not match the whole.

SMILES	VDR inhibitor
COc1ccc(OC)c(S(=O)(=O)n2c([N+](=O)[O-])cnc2C)c1	-7.7%
CCN1CCN(c2cc3c(cc2F)c(=O)c(C(=O)O)cn3C2CC2)CC1	6.6%&8.2%
CCOc1ccc(NC(=O)Nc2ccc3c(c2)CCC3)cc1	-1.5%
O=C(NCCCCc1ccccc1)c1cccc(NC(=O)C2CC2)c1	79.4µM*
C=CCN(c1ccccc1)S(=O)(=O)c1cccc(C(=O)Oc2ccc3c(C)cc(=O)oc3c2)c1	-18.9%
CCc1ccc(CNC(=O)C2CCN(S(=O)(=O)N3CC(C)CC(C)C3)CC2)cc1 (configuration not stated)	-0.8%
O=c1ccn([C@@H]2O[C@H](CNCC3=Cc4cc(O)ccc4OC3)[C@@H](O)[C@H]2O)c(=O)[nH]1	-8.4%
O=C(OCc1cc(=O)n2ccsc2n1)C1(c2ccc(Cl)cc2)CC1	-7.9%
CCOC(=O)c1nn(-c2ccc(Cl)cc2)c2nc(-c3ccc(C)cc3)c(C#N)c(=O)n12	25.9%
Cc1ccc2[nH]cc(C(=O)CN3CCOCC3)c2c1	-9.1%
COc1cc(CN(CC(C)C)S(=O)(=O)c2ccccc2Br)cc(OC)c1	-12.4%
CCCCN1CNC(=S)N(Cc2ccccc2)C1	-6.7%
O=c1[nH]c2ccc(NS(=O)(=O)c3ccc(Cl)cc3)cc2[nH]1	-16.4%
CCOc1ccc(CCNC(=O)Cn2c(-c3cccs3)cc3ccccc32)cc1OCC	-2.0%
O=C(O)c1cc2n(n1)CCN(Cc1ccccc1Cl)C2=O	17.9%
COc1cccc(CNC(=O)C(Cc2ccccc2)NS(=O)(=O)c2ccc3c(c2)oc(=O)n3C)c1 (configuration not stated)	22.2%
O=C(Cn1nnc(-c2ccc([N+](=O)[O-])cc2)n1)NNC(=O)c1ccccc1	-0.4%
CCCCN(C(=O)C1CCCO1)c1c(N)n(CCC)c(=O)[nH]c1=O (configuration not stated)	2.6%
O=C(CN1C(=O)CSc2ccc(S(=O)(=O)N3CCCC3)cc21)Nc1cccc(Cl)c1	5.3%
CCOc1c(Br)cc(CNC2CCCCCCC2)cc1OC	-17.3%

The closing two entries of the section above open the next one:
SMILES	VDR inhibitor
O=C(CN1C(=O)CSc2ccc(S(=O)(=O)N3CCCC3)cc21)Nc1cccc(Cl)c1	5.3%
CCOc1c(Br)cc(CNC2CCCCCCC2)cc1OC	-17.3%
Cc1cccc(CNC(=O)c2ccc3c(c2)c(C)c(C)n3Cc2ccccc2)c1	16.4%
CC(=O)c1ccc(N2CCN(C(=O)c3nn(Cc4ccccc4)c(=O)c4ccccc34)CC2)cc1	0.5%
COc1cc(N2C(=O)NC3CC2(C)Oc2ccccc23)cc(OC)c1OC (configuration not stated)	8.2%
O=C(N1CCOCC1)n1nnc2ccccc21	-6.5%
O=C(NCCOc1ccccc1Cl)C(=O)NCCOc1ccccc1Cl	-16.2%
CCCCCCCCCCCC(=O)NC(C(=O)OCC)C(O)c1cccc([N+](=O)[O-])c1 (configuration not stated)	-12.9%
O=C(Nc1nnc(C2CCCCC2)s1)c1ccc(Br)s1	-2.9%
CCOC(=O)N1CCN(S(=O)(=O)c2cc(Cl)c(OC)cc2Cl)CC1	-5.2%
Cc1cccc(C(=O)C2CCOC(C)(C)C2)c1 (configuration not stated)	1.2%
CCOc1ccc(C2C(C(=O)c3cccs3)=C(O)C(=O)N2CCCn2ccnc2)cc1 (configuration not stated)	6.1%
CCOC(=O)c1c(NC(=O)c2ccccc2Br)sc2c1CCc1ccccc1-2	79.4µM*
CCOc1ccc(NC(=O)CN(C)C(=O)c2c(-c3c(F)cccc3Cl)noc2C)cc1OCC	6.9%
C=CCOC(=O)C1=C(C)N=C2SCCC(=O)N2C1/C=C/c1ccccc1OC (configuration not stated)	-20.4%
CCc1nc2nc(C)cc(Nc3ccc(OC)cc3OC)n2n1	-12.8%
Cc1ccc(-n2c3c(cc(C(=O)NCc4ccco4)c2=O)C(=O)CCC3)cc1	4.5%
CC1CCN(C(=O)c2[nH]cnc2C(=O)N[C@@H](C)c2ccccc2)CC1	-6.2%
Cc1ccc(-c2noc(-c3cccnc3NCc3ccc(Cl)cc3)n2)cc1	14.0%
COC(=O)c1ccc(NC(=O)CS(=O)(=O)c2ccccc2)cc1	8.7%
CC1CCN(c2nc3ccc(C(=O)N4CCN(c5ccccc5)CC4)cc3s2)CC1	19.1%
Cc1ccc(CNC(=O)CCS(=O)(=O)c2ccc(Br)s2)o1	-25.6%
Cc1ccc(S(=O)(=O)Nc2c(C)nc3nc(C)[nH]n3c2=O)c(C)c1	0.6%&-13.0%
COc1ccccc1CNc1nc(-c2c(C)noc2C)nc2ccccc12	-9.9%
NC(=S)N/N=C\c1c2ccccc2cc2ccccc12	-5.0%
CCOC(=O)C1CCN(c2ccc(C(=O)O)cc2[N+](=O)[O-])CC1	8.5%
O=c1cc(CN2CCN(c3cccc(Cl)c3)CC2)c2cc3c(cc2o1)CCCC3	-7.7%
O=C(CSc1n[nH]c(=O)[nH]c1=O)Nc1ccc(Br)cc1Br	14.0%
O=C(CN1CCN(S(=O)(=O)c2ccc(F)cc2)CC1)Nc1ccc(F)cc1F	-2.8%
O=C(NCCCO)C(=O)c1c(-c2ccccc2)cc2ccccn12	-14.9%
CCC(=O)c1ccc(N2CCC(C)CC2)c(F)c1	-5.8%
CC(C)c1nc2c([nH]1)c(=O)n(C)c(=O)n2C	4.4%
C1=CCC(CN2CCNCC2)CC1 (configuration not stated)	10.1%
Cc1cc(OCCn2cc(C(=O)c3cccs3)c3ccccc32)ccc1Cl	-8.1%
O=C(Cc1cccs1)N/N=C/c1ccco1	-14.8%
O=C(Nc1ccc2oc(-c3ccccc3Cl)nc2c1)c1cncc(Br)c1	-13.3%
Cc1nn(-c2ccccc2)nc1C(=O)NNC(=O)c1ccc(C(F)(F)F)cc1	-0.2%
Cc1ccccc1NC(=O)c1c(C)oc2ccc(O)c(CN3CCC(C)CC3)c12	1.9%
COc1ccc(/C=N\NC(=O)c2ccccc2)cc1COc1ccc(F)cc1	13.4%
Cc1c(C(=O)NCc2ccccc2Cl)sc2nc3n(c(=O)c12)CCC3	-3.8%
COc1ccc2cc(C(C)=O)c(=O)oc2c1	-0.4%
CC(NC(=O)c1cc(F)c(F)c(F)c1F)c1ccc(-n2ccnc2)cc1 (configuration not stated)	10.0%
CSCC[C@H](N)C(=O)N1CCC(C(=O)N[C@@H](C)C(=O)NCc2ccc(F)cc2)CC1	-12.9%
COc1cc(OC)c2c(-c3ccccc3)cc(=O)oc2c1C(CC(=O)N1CCN(c2ccccc2)CC1)c1ccc(N(C)C)cc1 (configuration not stated)	-5.1%&-7.5%
Cc1ccc(NC(=O)CN(C)C(=O)c2cccc(Br)c2)cc1	-19.2%
Cc1ccc(-n2c(SCC(=O)NCCN3C(=O)CSC3=O)nnc2-c2ccccc2F)cc1	-16.4%
COC(=O)c1cc2oc3ccccc3c2n1CC(=O)N1CCCc2ccccc21	31.0%[activator]
CCc1cc(C(=O)COc2ccc(F)cc2)c(O)cc1O	3.2%
CCOc1ccc(N(C)S(=O)(=O)c2cc(-c3cnc(C)o3)ccc2OC)cc1	-2.8%
O=C(CSc1nnc(C2CC2)n1C1CC1)c1cc(F)ccc1F	-21.6%
COc1cccc(-c2cccc(NC(=O)C3CCN(Cc4ccc(CO)o4)CC3)c2)c1	-5.6%
O=NCc1ccc([N+](=O)[O-])o1	-1.1%
Cc1cc(=O)oc2cc(OC(C)C(=O)NCc3ccccn3)ccc12 (configuration not stated)	-27.7%
Oc1ccc(Oc2ncc(Cl)cc2Cl)cc1	-11.9%
Cc1cccc(C)c1N(CC(=O)N1CCN(C)CC1)S(C)(=O)=O	3.3%
Cn1c(SCC(=O)NC(C)(C)C)nc(O)cc1=O	15.3%
Cc1ccc(-c2cc([C@H]3[C@@H]4C=CCC[C@@]4(C)C(=O)N3Cc3ccccc3)ccc2F)cc1	-12.7%
Cc1nc2sccn2c(=O)c1S(=O)(=O)Nc1ccc(N2CCOCC2)c(Cl)c1	1.3%&-7.1%
CCOc1ccc(Cl)cc1S(=O)(=O)N1CCC(C(=O)NC2CC2)CC1	?
C=C1[C@@H](CCO)N(S(=O)(=O)C(C)(C)C)C[C@@H]1C	-4.5%
O=C(CSCc1ccc(Cl)cc1Cl)Nc1c[nH]c(=O)[nH]c1=O	0.6%
COc1ccc(-c2nn(-c3ccccc3)cc2C=O)cc1[N+](=O)[O-]	19.2%

New compounds follow
SMILES	VDR inhibitor
COc1ccc(C2C=C(c3ccccc3)Nc3ncnn32)cc1 (configuration not stated)	1.7%
CCOc1ccc(NC(=O)c2ccc(S(=O)(=O)N(C)C)cc2)cc1	-15.1%
Cc1cccc(NC(=S)Nc2cccc(C(F)(F)F)c2)n1	-12.2%
COc1ccc(N2CCN(Cc3nc4c(c(=O)[nH]c(=O)n4C)n3Cc3ccccc3F)CC2)cc1	-8.2%
COc1nc(Nc2cccc([N+](=O)[O-])c2)nc(OC)n1	13.1%
Oc1ccc(-c2nc3ccccc3s2)cc1	6.3%
CC1(C)OC(=O)N2CCc3ccccc3C21C (configuration not stated)	7.9%
Cc1noc(Cn2c(=O)c3ccccc3n(CC(=O)Nc3ccc(F)cc3F)c2=O)n1	-7.0%
C=CCCc1ccc(C#N)c(SCc2c(C(=O)OCC)c3cc(OC(C)=O)c(Br)cc3n2C)n1	11.7%
O=C(Nc1ccccc1C(=O)Nc1ccncc1)c1ccc([N+](=O)[O-])cc1	6.8%
O=S(=O)(Nc1ccc(Br)cn1)c1cccs1	-0.7%
CC/C(=N/NC(=O)c1ccccc1O)c1c(C)[nH]n(-c2ccccc2)c1=O	-8.0%
COC(=O)C(NS(N)(=O)=O)C(C)C (configuration not stated)	-8.2%
O=C(CCN1CCN(c2ccc(Cl)cc2)CC1)Nc1nccs1	7.0%
Cc1cc(C)nc(OC(=O)c2c(Cl)cc(Cl)cc2Cl)n1	-19.5%
CCOCCCNC(=O)C(NC(=O)c1ccccc1O)c1ccc(Cl)cc1 (configuration not stated)	-22.3%
O=C(Cn1c(=O)n(-c2ccccc2)c(=O)c2oc3ccccc3c21)Nc1ccccc1	-5.3%
COc1cc(NC(=O)c2cccnc2)ccc1NC(=O)c1ccccc1Cl	6.7%
CCC(C)(C)NC(=O)CSc1nc(Cc2ccccc2)nc2ccccc12	-0.2%
COc1ccccc1NS(=O)(=O)c1cc(C(=O)N2CCCCCC2)ccc1C	23.5%

Some of these compounds in order of formula weight, lowest first:
SMILES	VDR inhibitor
O=C(Cc1cccs1)N/N=C/c1ccco1	-14.8%
Cc1ccc2[nH]cc(C(=O)CN3CCOCC3)c2c1	-9.1%
Cc1ccccc1NC(=O)c1c(C)oc2ccc(O)c(CN3CCC(C)CC3)c12	1.9%

Continuation.
SMILES	VDR inhibitor
Cc1ccc2[nH]c(C)c(/C=C/c3cc[n+](C)cc3)c2c1	-24.9%
O=C(COC(=O)CN1C(=O)c2ccccc2C1=O)Nc1cccc(F)c1	6.8%
CC(C)C(=O)Nc1cccc(C(=O)Nc2cc([N+](=O)[O-])ccc2F)c1	-5.8%
Cc1nc2nc(SCc3ccccc3)[nH]n2c(=O)c1C	-14.4%
COc1cc(CNc2cc(C)ccc2C)cc(OC)c1OC	2.2%
Cc1ccsc1/C=N/Nc1ccc(F)cc1F	-5.2%
Cc1cccc(Cn2c(C)nc3c(N)c(C)c(C)cc32)c1	8.5%
OC(CNCc1ccccc1F)(c1ccc(F)cc1)c1ccc(F)cc1	7.2%
O=C(NCCNCCO)c1c(O)c2cccc3c2n(c1=O)CCC3	-13.6%
CCN(C(=O)COC(=O)c1nccnc1N)c1cccc2ccccc12	-0.2%
Cc1ccc(-n2ncc3c(NCCc4ccccc4)ncnc32)cc1C	11.6%
CCC(=O)Nc1cccc(C2=NOC3(C2)C[C@@H](C(N)=O)N(C(=O)CC(c2ccccc2)c2ccccc2)C3)c1 (some centres not stated)	2.8%
COc1ccc(-c2cn(CCO)c(CCN)n2)cc1	-14.6%
COC1CCCCC1Nc1cc(C)ccc1C (configuration not stated)	-3.3%
O=C(CSc1nnc(-c2ccccc2)c(-c2ccccc2)n1)NC1CCCC1	0.7%
C[C@H]1CN([C@@H](C)CO)C(=O)c2cccc(NC(=O)C3CC3)c2O[C@H]1CN(C)S(=O)(=O)c1ccccc1	4.5%
C=CCN1C(=O)S/C(=C\c2ccc3c(c2)n(C)c(=O)n3C)C1=O	0.2%
COc1ccc(/C=N/NC(=O)c2ccc(Cl)cc2Cl)cc1COC(C)=O	6.1%
O=C(NCCCn1ccnc1)c1ccc(Br)cc1	3.0%
COC(=O)c1cccc(NC(=O)c2cc(OC)c(OC)c(OC)c2Br)c1	-4.2%
COC(=O)CCCN1C(=O)c2cccc3cccc(c23)C1=O	-13.2%
CC(NC(=O)/C=C/c1ccco1)c1nc2ccccc2n1Cc1ccccc1F (configuration not stated)	-14.1%
CC(=O)N/C(=C\c1ccc2c(c1)OCO2)C(=O)NC(C(=O)O)c1ccccc1 (configuration not stated)	-2.7%
CSc1nn(Cc2cccc(Cl)c2)c(N(C(C)=O)C(C)=O)c1S(=O)(=O)c1ccccc1	-5.0%
CS(=O)(=O)c1ccc(NC(=O)C2CCCN(C(=O)c3ccc(Cl)cc3)C2)cc1 (configuration not stated)	-3.4%
CCOCC(=O)N1CCN(Cc2ccc3c(c2)OCO3)CC1	-8.1%
Cc1nc(-c2cccc(F)c2)sc1CCNC(=O)c1c(F)cccc1Cl	-0.6%
